Screens: PubChem, ICCB-Longwood Screening Facility, Harvard Medical School
Mtb MbtI inh – MbtI salicylate synthase inhibitors, primary screen, biochemical, fluorescence intensity; purified MbtI enzyme, fluorescence intensity read-out; inhibition, %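 (about 17 µg/mL by stock and volumes)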; P9WFX0; AID 493033, 2011; hit rate 0.89% among 100,000;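 active = above 50% in both replicates, above 80% if mildly self-fluorescent; inactive = the rest, strongly fluorescent compounds included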;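 also: 0% = mean of negative and 100% = mean of positive controls; one replicate is shown; some compounds called inactive have numbers as strong as hits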
MenB inh – M. tuberculosis MenB inhibitors, primary screen, biochemical, absorbance; MenB enzyme assay, absorbance read-out; some hits fall short of the stated cut; inhibition, %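 (about 12 µg/mL by stock and volumes)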; hit rate 0.43% among 100,000; 1,4-dihydroxy-2-naphthoyl-CoA synthase (Mycobacterium tuberculosis (strain ATCC 25618 / …;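 active = mean of two replicates above 30%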;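 also: 0% = no compound and 100% = wells with inactive enzyme; the first replicate is given; strong numbers were not always called active; inactives centre near -10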
Target sequence (P9WNP5 whole entry, looked up): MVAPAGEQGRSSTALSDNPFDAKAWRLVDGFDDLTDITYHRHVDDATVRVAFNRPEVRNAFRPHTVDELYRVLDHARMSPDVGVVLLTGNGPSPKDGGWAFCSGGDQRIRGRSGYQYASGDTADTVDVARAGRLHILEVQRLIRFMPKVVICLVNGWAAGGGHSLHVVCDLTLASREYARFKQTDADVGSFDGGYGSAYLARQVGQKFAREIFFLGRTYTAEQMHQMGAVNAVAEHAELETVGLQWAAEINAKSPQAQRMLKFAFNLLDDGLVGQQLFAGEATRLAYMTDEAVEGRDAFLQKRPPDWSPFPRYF
PV pol inh – poliovirus RdRp elongation inhibitors, primary screen, biochemical, fluorescence polarization, total intensity. AID 588519, 2011. poliovirus polymerase elongation; hits give low values. % elongation, % (compound at 16.7 µg/mL). hit rate 0.66% among 150,000; in the data active = % elongation below about 90%; also: some results filed as inactive read as strong as hits
Target sequence (P03300 1749-2209 limits assumed): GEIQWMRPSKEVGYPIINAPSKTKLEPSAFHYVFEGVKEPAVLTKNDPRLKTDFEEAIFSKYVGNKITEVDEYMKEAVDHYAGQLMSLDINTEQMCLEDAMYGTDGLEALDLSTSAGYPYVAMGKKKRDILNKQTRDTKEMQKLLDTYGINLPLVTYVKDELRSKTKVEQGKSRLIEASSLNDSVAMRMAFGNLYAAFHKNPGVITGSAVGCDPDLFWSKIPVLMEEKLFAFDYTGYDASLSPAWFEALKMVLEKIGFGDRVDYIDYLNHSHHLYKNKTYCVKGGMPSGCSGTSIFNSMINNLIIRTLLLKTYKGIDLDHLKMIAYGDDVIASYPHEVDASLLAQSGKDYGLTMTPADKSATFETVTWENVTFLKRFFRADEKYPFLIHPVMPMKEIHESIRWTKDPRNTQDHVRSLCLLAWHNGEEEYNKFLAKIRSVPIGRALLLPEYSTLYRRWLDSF
PV pol inh intensity – further read-out of PV pol inh, marked with its call; % elongation; measured here: total intensity read-out; formula for this scale not given here;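 total fluorescence in place of polarization; lower means less elongation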
The depositor's hits bear a star; / = not tested or not shown; & = joins results of further samples.

Results follow in this order: Mtb MbtI inh, MenB inh, PV pol inh, PV pol inh intensity
1: CCn1c(=O)cc(SCC(=O)N2CCCC2)c2ccccc21
  -6, -17, 101, 102
2: COc1ccc(S(=O)(=O)N2CCN(C)CC2)cc1C
  -15, -6, 101, 101
3: O=C(COc1ccccc1C(=O)O)NCCN1CCOCC1
  /, -23, 102, 91
4: N#Cc1c(-c2cccs2)cc(-c2ccc(C(=O)O)cc2)nc1SCc1cccs1
  /, 4, 78*, 88*
5: O=C(Nc1ccccc1)Nn1cnc2ccccc2c1=O
  -14, -14, 107, 104
6: O=C1NC(/C=C/c2ccco2)Nc2sc3c(c21)CCN(Cc1ccccc1)C3 (stereo not given)
  -6, 4, 103, 107
7: O=c1[nH]c(CN2CCC(Cc3ccccc3)CC2)nc2scc(-c3cccs3)c12
  -20, -19, 112, 120
8: CCN(CC)CCOc1ccccc1
  /, -23, 106, 88
9: COc1ccc(C(=O)NC(=O)CSc2n[nH]c(N)n2)cc1
  0, -6, 106, 112
10: CC(C)(C)NC(=O)NC(=O)Cn1nc(C(=O)O)c2ccccc2c1=O
  4, -9, 96, 102
11: NC(=O)c1sc(=S)n(-c2ccccc2)c1N
  /, -17, 91, 92
12: Cc1ccc(C(=O)c2c(NC(=O)CSc3nnnn3C)sc3c2CCCC3)cc1
  27, -23, 100, 105
13: CCCCc1ccc(C(=O)O)nc1
  -8, -3, 101, 100
14: NC(=O)C1CCN(Cc2ccc(Cl)cc2)CC1
  /, -12, 112, 112
15: Cc1onc(-c2ccccc2)c1C(=O)NC(=S)Nc1ccc(Cl)cc1
  -6, -7, 107, 115
16: CN1CCCC(OC(=O)c2ccc(F)cc2)C1 (stereo not given)
  -2, 30, 101, 102
17: CC(=O)SCc1n[nH]c(=S)n1C(C)=O
  33, -36, 123, 137
18: Cc1ccc(SCCC(=O)NCCc2ccc(F)cc2)cc1
  -7, /, 101, 107
19: CNC(=O)Oc1ccc2c(c1)[C@]1(C)CCN(C)[C@@H]1N2C
  -22&-17&-116, -3&-4&-3, 99&101&100, 103&103&102
20: N#CC1=C(N)Oc2nc[nH]c(=O)c2C1c1ccncc1 (stereo not given)
  -5&2, 3&-31, 102&101, 103&98
21: Cn1c(-c2ccccc2)cn2cc(-c3ccccc3)nc12
  -244, -1, 100, 103
22: CC(C)CCNC(=O)c1cccn2c(=O)c3cc4ccccc4cc3nc12
  5, -12, 82, 172
23: N#CCSc1nnnn1-c1cccnc1
  -5, -18, 99, 107
24: CCN(CC)Cn1nc(-c2ccccc2Cl)oc1=S
  9, -9, 102, 102
25: NC(=O)c1ccccc1OCC(=O)NCC(F)(F)F
  -11, 2, 105, 109
26: Cc1sc2nc(CSC(C)C(=O)OCc3cc(=O)n4ccsc4n3)[nH]c(=O)c2c1C (stereo not given)
  14, 8, 102, 96
27: S=c1[nH]cnc2sccc12
  89, -31, 111, 108
28: CC1CC(=O)Nc2ccccc2N1C(=O)CNCc1ccccc1 (stereo not given)
  -7, -25, 103, 104
29: CCOC(=O)c1ccc(N2C(=O)C(O)=C(C(=O)c3ccco3)C2c2cccnc2)cc1 (stereo not given)
  -7, -120, 103, 100
30: Cc1ccccc1CS(=O)(=O)Cc1ccc(C(=O)NC2CC2)o1
  12, -1, 102, 101

Compounds listed so far that contain fluorine (3):
Results follow in this order: Mtb MbtI inh, MenB inh, PV pol inh, PV pol inh intensity
16: CN1CCCC(OC(=O)c2ccc(F)cc2)C1 (stereo not given)
  -2, 30, 101, 102
18: Cc1ccc(SCCC(=O)NCCc2ccc(F)cc2)cc1
  -7, /, 101, 107
25: NC(=O)c1ccccc1OCC(=O)NCC(F)(F)F
  -11, 2, 105, 109

Later entries
Results follow in this order: Mtb MbtI inh, MenB inh, PV pol inh, PV pol inh intensity
31: O=C(N/C(=C\c1cccnc1)C(=O)N1CCCCC1)c1ccccc1
  /, -3, 100, 99
32: Cc1ccsc1C=Nc1ccc(Cl)cc1C(=O)c1ccccc1
  17, -36, 101, 100
33: CC1(C)CCCC2=C1CC(C(=O)O)C(C(=O)NCc1cccnc1)C2 (stereo not given)
  -9, /, 101, 103
34: O=c1c2ccccc2c2ccccc2c(=O)n1Cc1cccnc1
  -9, -5, 102, 102
35: COc1ccc(CNC(=O)C2C(Oc3ccc(Cl)cc3Cl)C(=O)N2c2cccc(C)c2C)cc1 (stereo not given)
  -12, -5, 101, 103
36: CCOC(=O)C1(C(=O)OCC)CC1(C(=O)OCC)C(=O)OCC
  -15, 4, 101, 104
37: C=CCn1c(=O)c2ccccc2n2c(SCC(=O)c3cc(C)ccc3C)nnc12
  -7, -12, 107, 110
38: O=S(=O)(NCc1ccccc1)c1ccccc1C(F)(F)F
  -6, -10, 101, 97
39: NC1=Cc2ccccc2CN1c1ccccc1Cl
  /, -19, 106, 100
40: O=C1OC(C2CCCCC2)=N/C1=C\c1ccccc1
  13, -7, 102, 105
41: CC1CC(C)CN(c2ncnc3c2nc2n3CCCCC2)C1 (stereo not given)
  -4, -27, 105, 100
42: O=C(O)C(CO)c1ccccc1 (stereo not given)
  0, 26*, 98, 104
43: CC(C)C(=O)N1CCC(CN=CC2=C(O)CC(C)(C)CC2=O)CC1
  21, 30, 103, 104
44: COc1ccccc1C1c2cc3c(cc2OC(C)(O)C1C)OCO3 (stereo not given)
  /, -19, 103, 107
45: O=C(Nc1ccc2ccccc2c1)/C(=C/c1ccco1)c1ccccc1
  /, -82, 99, 97

Single entries from the list.
Entry for `CCN(CC)CCOc1ccccc1` in PV pol inh: 106
Entry for `COc1ccc(CNC(=O)C2C(Oc3ccc(Cl)cc3Cl)C(=O)N2c2cccc(C)c2C)cc1` (stereo not given) in PV pol inh: 101

Following part:
Results follow in this order: Mtb MbtI inh, MenB inh, PV pol inh, PV pol inh intensity
46: COc1cc(OC)c(NC(=O)/C=C/c2cc(C)n(Cc3ccco3)c2C)cc1Cl
  8, -35, 96, 101
47: Cc1ccc(-c2cn(S(=O)(=O)c3cccc4nsnc34)nc2N)cc1
  -4, -8, 103, 103
48: CCc1ccc(CCC(=O)O)cc1
  -4, -25, 102, 92
49: CC1CCN(C(=O)c2ccc3c(c2)OCCO3)CC1
  -9, -22, 101, 104
50: CC1C(=O)OC(c2ccc(Br)cc2)C(C)(C)C1=O (stereo not given)
  /, 2, 96, 104
51: COc1ccc(/C=N/S(=O)(=O)c2cccs2)cc1
  7, -3, 109, 110
52: COc1cc(N=Cc2cc3cccc(C)c3nc2Cl)c(OC)cc1Cl
  /, 7, 101, 104
53: CN(CC(=O)Nc1ccc(F)c(F)c1F)C(=O)C1COc2ccccc2O1 (stereo not given)
  -8, -25, 104, 96
54: Cc1ccc(C(C)C)cc1OC(=O)c1cn(CCC#N)nc1-c1cccs1
  1, -7, 100, 100
55: Cc1cc(-c2ccco2)n(CC(=O)O)n1
  7, -7, 100, 96
56: Brc1ccc(-c2nnc3sc(CNCc4ccco4)cn23)cc1
  -5, -27, 100, 101
57: CN1CCN(CC(O)COc2ccc3ccccc3c2)CC1 (stereo not given)
  /, -5, 103, 103
58: O=C(O)C1CCCCC1C(=O)Nc1cccc(C(F)(F)F)c1 (stereo not given)
  -7, /, 101, 97
59: O=C(CSc1nnc(-c2ccc(Cl)cc2)o1)c1ccc(Cl)cc1
  -21, 13, 102, 104
60: O=C1Nc2ccccc2C(=O)C1(N1CCOCC1)N1CCOCC1
  -7, 2, 101, 104
61: Cc1ccc(C(=O)NC2CC(C)(C)NC(C)(C)C2)c(C)c1
  -3, /, 102, 102
62: CC(c1ccc(F)cc1)N1CN(Cc2ccccc2)c2nc3ccccc3n2C1 (stereo not given)
  -11, -8, 101, 109
63: CC(N)C(=O)N1CCCCC1 (stereo not given)
  -2, 12, 99, 104
64: O=C(CSC1N=C2C=CC=CC2O1)c1ccccc1 (stereo not given)
  /, 6, 102, 109
65: O=C(Cc1ccc(S(=O)(=O)N2CCOCC2)s1)OCc1nc2ccccc2s1
  -6, -26, 111, 119
66: CCc1nc2cccnc2n1-c1ccc(CC(=O)N2CCOCC2)cc1
  13, 2, 101, 104
67: CCN(C(=O)CSc1nc2nc(C)cc(C)n2n1)C1CCS(=O)(=O)C1 (stereo not given)
  -7, 6, 102, 107
68: CCCNC(=O)C1CC(c2cnn(CC)c2C)=NO1 (stereo not given)
  -8, -9, 99, 102
69: COc1ccc(S(=O)(=O)N2CCC(C(=O)N3CCCC3)CC2)cc1OC
  2, 16, /, /
70: CC1CC(C)CN(S(=O)(=O)c2ccc(C(=O)Nc3nnc(C4CC4)o3)cc2)C1 (stereo not given)
  0, -18, 101, 103
71: CCC(C)(C)NC(=O)c1ccc2ncsc2c1
  18, -1, 105, 115
72: CCC1CCCCN1C(=O)COC(=O)c1cccnc1Cl (stereo not given)
  -6, /, 103, 101
73: O=c1[nH]c2ccccc2c(=O)n1CCc1ccccc1
  /, -7, 104, 112
74: O=C(N[C@@H](Cc1ccccc1)C(=O)NC1CCCCC1)c1ccco1
  8, -19, 101, 108
75: CN(C)N1C(=O)CC(NCc2ccccc2)C1=O (stereo not given)
  -8, -7, 102, 100
76: CC1=Nc2ccccc2N=C(NC(=O)CN2CCCCCC2)C1c1ccccc1 (stereo not given)
  -5, -21, 101, 101
77: Cc1cc(C(=O)CSc2nccn2-c2cccc(F)c2)c(C)n1-c1ncn[nH]1
  -13, -6, 106, 110
78: COc1ccc(C2Nc3ccccc3-c3nnc(SC)nc3O2)cc1 (stereo not given)
  4, -23, 105, 102
79: Cc1cc(C)cc(C(=O)N2CC(C)CC(C)C2)c1 (stereo not given)
  -11, /, 104, 109
80: COc1ccc(S(=O)(=O)n2nc(OC(=O)C(C)(C)C)cc2N)cc1
  37, 6, 105, 107
81: CC(C)Cn1c(SCC(=O)c2ccc[nH]2)nc2ccccc2c1=O
  4, -31, 101, 108
82: CCSc1nnc(CCNC(=O)C2CCCC2)n1C
  1, -51, 102, 101
83: CN1CCN(C(=O)CSCc2ccc(Br)cc2)CC1
  -10, -4, 103, 102
84: O=C(Nc1nc2ccc(F)cc2s1)C1CCCC1
  -9, -21, 101, 107
85: Cc1ccc(C(=O)OCC(=O)N(C)c2ccccc2)c(O)c1
  -15, /, 103, 107
86: COCCN1Cc2cccc(C(=O)NC(C)C34CC5CC(CC(C5)C3)C4)c2C1=O (stereo not given)
  -2, -2, 100, 99
87: C=CCNc1scc(-c2ccccc2)[n+]1CC=C
  -14, /, 101, 97
88: O=C(O)c1cccnc1SCc1cc(=O)n2cc(Br)ccc2n1
  3, -1, 101, 111
89: COc1ccc(C=Nc2ccc(C34CC5CC(CC(C5)C3)C4)cc2)c(OC)c1OC
  0, 9, 100, 99
90: O=C(Cc1cccc2ccccc12)NCC(=O)Nc1ccc(N2CCOCC2)cc1
  3, -2, 97, 102
91: Cc1ccc(-c2cc3nc4c(c(C(F)(F)F)n3n2)CCC4)cc1
  -2, 8, 100, 104
92: O=c1[nH]c(=S)[nH]cc1S(=O)(=O)c1ccc(F)cc1
  12, -10, 98, 103
93: COC(=O)C1=C2NC(=O)c3ccccc3N2C(=O)C1
  -8, 9, 103, 112
94: O=C(Nc1nccs1)c1cc2ccccc2oc1=Nc1ccc(Cl)cc1
  2, -12, 105, 105
95: CC(Sc1nc(-c2cccnc2)ccc1C#N)C(=O)O (stereo not given)
  24, -7, 100, 102
96: CC1=CC(C)C2C(=O)N(c3ccccc3)NC(=O)C2C1 (stereo not given)
  -7, -11, 103, 104
97: NC(=O)CSc1nnc(Cn2cnc3ccccc32)o1
  -7, 17, 99, 102
98: Cc1c(C(=O)NCc2ccccc2)oc2ccc3c(c12)C=CC1(CCCC1)O3
  4, -21, 102, 102
99: COc1ccc(OCC(O)CNC(C)(C)C)cc1 (stereo not given)
  -10, -1, 102, 109
100: O=C(Nc1ccc2oc(-c3ccncc3)nc2c1)c1ccco1
  /, -1, 102, 96
101: CCc1cc(=O)oc2cc(OC(=O)c3ccco3)c(Cl)cc12
  -243, -26, 98, 101
102: Cc1[nH]c(=S)c(C#N)c(C)c1CC(=O)c1ccc(Br)cc1
  /, -51, 102, 102
103: O=C(O)CCCNC1=NCCC1
  -10, -11, 100, 103
104: Nc1c(Cl)ncnc1N1CCCCC1
  18, -26, 103, 102
105: O=C1NCC(c2ccccc2)C1C(=O)N/N=C\c1cc2c(cc1Br)OCO2 (stereo not given)
  8, -12, 99, 102
106: CC(C(=O)N1CCc2ccccc21)N1C(=O)c2ccccc2C1=O (stereo not given)
  -5, -11, 103, 103

A portion taken from the entries so far, for reference:
Results follow in this order: Mtb MbtI inh, MenB inh, PV pol inh, PV pol inh intensity
1: CCn1c(=O)cc(SCC(=O)N2CCCC2)c2ccccc21
  -6, -17, 101, 102
2: COc1ccc(S(=O)(=O)N2CCN(C)CC2)cc1C
  -15, -6, 101, 101
